Ecoli rRNA inh = selective bacterial rRNA inhibition in E. coli; GFP signal change (wild-type ribosome), % (concentration not given with the values); hit rate 1.6% among 350,000; AID 720706; E. coli WT GFP vs humanized-ribosome RFP mutants, fluorescence, 24 h; hits give low values; DMSO median 0, no signal -100;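 active means significant combined selectivity score with lowered wild-type GFP, culture density cut under 30%, mutant RFP and density less affected; inactive means any of these conditions unmet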; further: one replicate is shown; some compounds called inactive have numbers as strong as hits
FGF22 binding = binders of recombinant human FGF22 by thermal shift. Q9HCT0. SYPRO orange fluorescence; percent of sucrose octasulfate shift, DMSO zero. calls only at 9.99 µM. hit rate 1.5% among 340,000. AID 651658;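 active means melting point raised past a set limit in the mean and every replicate; three in four hits are not shown here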
Target sequence (Q9HCT0 whole entry, looked up): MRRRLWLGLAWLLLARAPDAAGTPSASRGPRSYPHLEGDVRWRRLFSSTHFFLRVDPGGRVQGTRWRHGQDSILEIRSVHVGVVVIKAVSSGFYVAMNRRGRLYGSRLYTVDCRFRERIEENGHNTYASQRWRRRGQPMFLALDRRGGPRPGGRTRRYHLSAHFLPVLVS
Ecoli rRNA inh OD600 = further read-out of Ecoli rRNA inh, marked with its call; OD600 change, %; measured here: OD600 growth;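 optical density of the mix in the first replicate; 0 = DMSO median and -100 = no signal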
Ecoli rRNA inh RFP = also measured in Ecoli rRNA inh; calls as there; RFP signal change, %; measured here: RFP humanized mutant strains;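 first replicate; 0 = DMSO median and -100 = no signal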
The depositor's hits bear a star; i = inactive. This is a subset. The share of hits here may be higher or lower than overall.

nr	SMILES	Ecoli rRNA inh	Ecoli rRNA inh OD600
1	Cc1noc(C)c1S(=O)(=O)Nc1ccc2c(c1)C(=O)N([C@H](C)CO)C[C@@H](C)[C@@H](CN(C)C(=O)Nc1ccc(F)cc1)OCCCC[C@@H](C)O2	-2.4	-5.7
2	C[C@@H]1CN([C@@H](C)CO)C(=O)c2cc(NS(=O)(=O)c3cn(C)cn3)ccc2O[C@@H](C)CCCCO[C@@H]1CN(C)S(=O)(=O)c1cccs1	-3.0	-4.5
3	O=C(C[C@@H]1C[C@@H]2c3cc(NC(=O)Nc4ccccc4)ccc3O[C@@H]2[C@@H](CO)O1)NC1CCCC1	0.9	-5.6
4	CCCC#Cc1cnc2c(c1)C(=O)N([C@@H](C)CO)C[C@@H](C)[C@@H](CN(C)C(=O)C1CCC1)O2	5.9	6.9
5	CO[C@H](CN(C)C(=O)C1CCOCC1)[C@H](C)CN(C(=O)Nc1ccc(C(F)(F)F)cc1)[C@H](C)CO	-57.2	-81.8
6	COc1ccc(S(=O)(=O)Nc2ccc3c(c2)CC(=O)N([C@@H](C)CO)C[C@H](C)[C@@H](CN(C)Cc2ccc(C(=O)O)cc2)O3)cc1	0.0	-7.8
7	Cc1ccccc1S(=O)(=O)N(C)C[C@H]1OCc2ccccc2-c2c(n(C)c3ccccc23)C(=O)N([C@@H](C)CO)C[C@@H]1C	1.5	3.9
8	COc1ccc(NC(=O)Nc2ccc3c(c2)CC(=O)N([C@@H](C)CO)C[C@@H](C)[C@@H](CN(C)Cc2ccc(-c4ccccc4)cc2)O3)cc1	4.9	2.3
9	C[C@@H]1CN([C@@H](C)CO)C(=O)c2c(c3ccccc3n2C)-c2ccccc2CO[C@@H]1CN(C)C(=O)c1ccc(F)cc1	-3.7	-1.3
10	CC(C)C#Cc1ccc2c(c1)O[C@@H](CN(C)C(=O)CC1CC1)[C@@H](C)CN([C@H](C)CO)S2(=O)=O	-3.4	-5.5

nr	Ecoli rRNA inh RFP	FGF22 binding
1	0.4	i
2	-0.2	i
3	3.2	i
4	-1.4	i
5	-16.8	i
6	-0.3	i
7	-0.4	i
8	-0.7	i
9	6.9	i
10	-0.8	i

Further entries
nr	SMILES	Ecoli rRNA inh	Ecoli rRNA inh OD600
11	CCCNC(=O)N(C)C[C@@H]1Oc2ncc(/C=C/c3ccccc3)cc2C(=O)N([C@H](C)CO)C[C@H]1C	-5.9	9.6
12	CO[C@H](CN(C)C(=O)c1ccccc1F)[C@H](C)CN([C@H](C)CO)S(=O)(=O)c1ccc(Cl)cc1	0.9	8.6
13	C[C@@H]1CN([C@H](C)CO)C(=O)c2cc(NS(C)(=O)=O)ccc2O[C@@H](C)CCCCO[C@@H]1CN(C)Cc1ccc(Cl)c(Cl)c1	-10.6	-42.2
14	C[C@@H]1CN([C@H](C)CO)C(=O)c2c(c3ccccc3n2C)-c2ccccc2CO[C@@H]1CN(C)S(=O)(=O)c1cn(C)cn1	-1.0	-3.7
15	Cc1noc(C)c1NC(=O)Nc1ccc2c(c1)C(=O)N([C@H](C)CO)C[C@@H](C)[C@H](CN(C)C(=O)Nc1cccc3ccccc13)OCCCC[C@H](C)O2	0.1	-9.1
16	O=C(C[C@@H]1CC[C@H](NC(=O)C2CCC2)[C@H](CO)O1)NCCCN1CCOCC1	0.9	-0.1
17	CC(C)NC(=O)N[C@H]1CC[C@H](CCn2cc(-c3ccccc3)nn2)O[C@@H]1CO	-1.0	-2.2
18	C[C@H](CO)N1C[C@H](C)[C@@H](CN(C)C(=O)CN(C)C)Oc2ncc(-c3ccc(C#N)cc3)cc2C1=O	-1.5	-2.9
19	N#C[C@H]1[C@@H](c2ccccc2C2=CCCCC2)[C@H](CO)N1C(=O)C1CCOCC1	-0.6	5.5
20	COCC(=O)N1[C@H](CO)[C@@H](c2ccccc2)C12CN(Cc1cc(F)ccc1F)C2	1.4	10.5

nr	Ecoli rRNA inh RFP	FGF22 binding
11	-1.9	i
12	-0.9	i
13	28.6	i
14	0.0	i
15	2.6	i
16	-0.6	i
17	0.8	i
18	1.0	i
19	0.1	i
20	1.6	i

More entries follow:
nr	SMILES	Ecoli rRNA inh	Ecoli rRNA inh OD600
21	CC(=O)CCN1CCSCCS1(=O)=O	11.1	3.6
22	O=C(NCC1CCN(C(=O)C(=O)c2cc3ccccc3o2)CC1)c1cc(C(F)(F)F)cc(C(F)(F)F)c1	7.8	7.6
23	CCCN1C[C@@H](C)[C@H](OC)CN(C)C(=O)c2cc(NC(=O)C3CC3)ccc2OC[C@H]1C	0.2	-4.2
24	C[C@H]1CN([C@@H](C)CO)C(=O)c2cc(NS(=O)(=O)c3ccc(F)cc3)ccc2O[C@H]1CN(C)Cc1ccc(C(=O)Nc2ccccc2N)cc1	4.4	-10.3
25	CCC(=O)Nc1ccc2c(c1)OC[C@@H](C)N(CC1CCOCC1)C[C@@H](C)[C@H](OC)CN(C)C2=O	0.5	-2.2
26	CCS(=O)(=O)N1CC2(C1)[C@H](c1ccccc1)[C@@H](CO)N2C(=O)c1ccccc1	-0.1	-16.0
27	C[C@@H]1CN([C@@H](C)CO)S(=O)(=O)c2ccc(C#CC(C)(C)O)cc2O[C@H]1CN(C)C(=O)CC1CC1	-0.4	-0.2
28	COCC#Cc1ccc2c(c1)O[C@@H](CN(C)S(=O)(=O)c1ccc(OC)cc1)[C@@H](C)CN([C@H](C)CO)S2(=O)=O	-6.0	-1.0
29	C[C@@H]1CCCCO[C@@H](CN(C)Cc2ccc(C(F)(F)F)cc2)[C@@H](C)CN([C@H](C)CO)C(=O)c2cc(NC(=O)Nc3ccc(F)cc3)ccc2O1	4.4	12.8
30	CCCNC(=O)N(C)C[C@@H]1Oc2cc(-c3cncnc3)ccc2S(=O)(=O)N([C@H](C)CO)C[C@@H]1C	2.1	5.7

nr	Ecoli rRNA inh RFP	FGF22 binding
21	-4.4	i
22	7.1	i
23	-1.2	i
24	0.1	i
25	0.4	i
26	0.0	i
27	-2.2	i
28	3.5	i
29	-0.4	i
30	-3.3	i

Reprinted at random: 2 entries already listed, in no set order.
nr	SMILES	Ecoli rRNA inh	Ecoli rRNA inh OD600
29	C[C@@H]1CCCCO[C@@H](CN(C)Cc2ccc(C(F)(F)F)cc2)[C@@H](C)CN([C@H](C)CO)C(=O)c2cc(NC(=O)Nc3ccc(F)cc3)ccc2O1	4.4	12.8
28	COCC#Cc1ccc2c(c1)O[C@@H](CN(C)S(=O)(=O)c1ccc(OC)cc1)[C@@H](C)CN([C@H](C)CO)S2(=O)=O	-6.0	-1.0

nr	Ecoli rRNA inh RFP	FGF22 binding
29	-0.4	i
28	3.5	i

(next part)
nr	SMILES	Ecoli rRNA inh	Ecoli rRNA inh OD600
31	CCC(=O)N[C@@H]1C=C[C@@H](CC(=O)NCC2CCCCC2)O[C@@H]1CO	-0.7	3.8
32	COCC#Cc1ccc2c(c1)O[C@H](CN(C)Cc1ccncc1)[C@@H](C)CN([C@H](C)CO)S2(=O)=O	-11.2	-9.3
33	C[C@@H]1CN([C@@H](C)CO)C(=O)Cc2cc(NC(=O)Nc3ccccc3)ccc2O[C@@H]1CN(C)Cc1ccc2c(c1)OCO2	6.2	-31.8
34	CCCNC(=O)N1CC2(C1)[C@H](c1ccccc1)[C@H](CO)N2Cc1ccccn1	3.7	8.2
35	COC(=O)c1ccc(CN2CC(=O)N3[C@H](C2)[C@@H](c2ccc(Br)cc2)[C@@H]3CO)cc1	-0.5	0.3
36	C[C@H](NC(=O)C[C@@H]1C[C@H]2c3cc(NC(=O)Nc4ccc(C(F)(F)F)cc4)ccc3O[C@H]2[C@@H](CO)O1)c1ccccc1	-5.1	15.3
37	C[C@H]1CN([C@@H](C)CO)C(=O)c2cc(NC(=O)Nc3ccc(C(F)(F)F)cc3)ccc2O[C@@H]1CN(C)C(=O)Nc1ccccc1	0.6	-9.8
38	CNC[C@@H]1Oc2c(NC(=O)Nc3ccc(C(F)(F)F)cc3)cccc2C(=O)N([C@@H](C)CO)C[C@H]1C	-3.8	-5.1
39	Cc1noc(C)c1S(=O)(=O)Nc1ccc2c(c1)C(=O)N([C@H](C)CO)C[C@H](C)[C@@H](CN(C)Cc1ccccc1)OCCCC[C@@H](C)O2	5.2	4.5
40	COc1ccc(CN(C)C[C@@H]2Oc3c(NC(=O)NC4CCCCC4)cccc3C(=O)N([C@H](C)CO)C[C@@H]2C)cc1	2.8	5.2

nr	Ecoli rRNA inh RFP	FGF22 binding
31	2.0	i
32	-2.1	i
33	12.6	i
34	1.2	i
35	-0.8	i
36	-5.2	i
37	1.0	i
38	-1.1	i
39	-1.1	i
40	-1.6	i

More entries
nr	SMILES	Ecoli rRNA inh	Ecoli rRNA inh OD600
41	CC(C)CC#Cc1cnc2c(c1)C(=O)N([C@@H](C)CO)C[C@@H](C)[C@@H](CN(C)C(=O)CCN1CCCCC1)O2	1.6	-10.4
42	COc1ccc(-c2ccc([C@@H]3[C@@H](CO)N4C(=O)CN(Cc5ccccc5)C[C@H]34)cc2)cc1	-2.0	0.0
43	C[C@H]1CN([C@@H](C)CO)C(=O)c2cc(NS(=O)(=O)c3cccs3)ccc2O[C@@H]1CN(C)Cc1ccc2c(c1)OCO2	0.6	0.7
44	CC(C)C#Cc1cnc2c(c1)C(=O)N([C@H](C)CO)C[C@@H](C)[C@@H](CN(C)C(=O)Nc1ccccc1)O2	-1.1	6.0
45	COCC(=O)N(C)C[C@@H]1Oc2cc(-c3ccccc3F)ccc2S(=O)(=O)N([C@H](C)CO)C[C@@H]1C	1.1	8.9
46	CO[C@@H]1CN(C)C(=O)c2cc(NC(C)=O)ccc2OC[C@@H](C)N(C(=O)CN2CCOCC2)C[C@H]1C	0.2	-2.9
47	C[C@@H]1CN([C@@H](C)CO)C(=O)c2cccc(NC(=O)C3CCCCC3)c2O[C@@H]1CN(C)C(=O)Nc1cccc2ccccc12	2.4	4.7
48	COc1ccc(NC(=O)Nc2ccc3c(c2)C(=O)N([C@H](C)CO)C[C@@H](C)[C@@H](CN(C)S(=O)(=O)c2ccc(F)cc2)OCCCC[C@H](C)O3)cc1	0.4	-3.0
49	C[C@H](CO)N1C[C@H](C)[C@H](CN(C)C(=O)Nc2ccc(F)cc2)Oc2cc(-c3ccncc3)ccc2S1(=O)=O	-6.8	-1.7
50	N#C[C@H]1N[C@@H](CO)[C@@H]1c1ccc(C#CC2CCCC2)cc1	0.0	1.1

nr	Ecoli rRNA inh RFP	FGF22 binding
41	-0.6	i
42	-1.8	i
43	-1.3	i
44	-3.5	i
45	0.2	i
46	-0.5	i
47	-0.1	i
48	-0.3	i
49	0.0	i
50	0.4	i

(listing goes on)
nr	SMILES	Ecoli rRNA inh	Ecoli rRNA inh OD600
51	C[C@@H]1CN([C@@H](C)CO)C(=O)Cc2cc(NS(=O)(=O)c3ccc(F)cc3)ccc2O[C@@H]1CN(C)S(=O)(=O)c1ccccc1	-3.5	-11.3
52	O=C(NC1CCCC1)N1CCCCN2[C@H](CO)[C@@H](c3ccc(/C=C/c4ccccc4)cc3)[C@@H]2C1	-54.8	-67.8
53	COc1ccc(NC(=O)N(C)C[C@H]2Oc3ccc(NS(=O)(=O)c4ccc(OC)cc4)cc3CC(=O)N([C@H](C)CO)C[C@@H]2C)cc1	4.4	4.5
54	C[C@@H]1CN([C@@H](C)CO)C(=O)c2cc(NC(=O)Nc3ccccc3)ccc2O[C@@H](C)CCCCO[C@@H]1CN(C)S(=O)(=O)c1cccs1	0.0	2.3
55	C[C@H]1CCCCO[C@@H](CN(C)Cc2ccccc2)[C@@H](C)CN([C@@H](C)CO)C(=O)c2cc(NS(C)(=O)=O)ccc2O1	0.7	-0.7
56	C[C@@H]1CCCCO[C@H](CN(C)S(=O)(=O)c2ccc(Cl)cc2)[C@H](C)CN([C@@H](C)CO)C(=O)c2cc(NC(=O)CCCN(C)C)ccc2O1	-1.1	-8.3
57	Cc1noc(C)c1NC(=O)Nc1ccc2c(c1)C(=O)N([C@@H](C)CO)C[C@H](C)[C@@H](CN(C)C(=O)Nc1c(C)noc1C)OCCCC[C@H](C)O2	3.0	-1.3
58	CCC(=O)N(C)C[C@@H]1Oc2cc(C#CCC3CCCC3)ccc2S(=O)(=O)N([C@@H](C)CO)C[C@@H]1C	-11.8	-38.4
59	C[C@@H]1CN([C@@H](C)CO)C(=O)c2cc(NS(=O)(=O)c3cn(C)cn3)ccc2O[C@@H](C)CCCCO[C@@H]1CN(C)S(=O)(=O)c1ccc(Cl)cc1	0.3	-3.7
60	COc1ccc(-c2ccccc2[C@@H]2[C@@H](C#N)N(C(=O)C3CCCCC3)[C@H]2CO)cc1	0.1	5.8
61	O=S(=O)(N[C@@H]1CC[C@H](CCn2cc(C3(O)CCCC3)nn2)O[C@@H]1CO)c1ccc(Cl)cc1	1.0	-3.8

nr	Ecoli rRNA inh RFP	FGF22 binding
51	3.6	i
52	-14.8	i
53	-5.5	i
54	-0.8	i
55	-3.1	i
56	16.8	i
57	-0.8	i
58	21.7	i
59	2.2	i
60	-3.1	i
61	-2.5	i

Screening results (PubChem)
